# Screening data: PubChem BioAssay, several laboratories
# RN4220 kill: kills Staphylococcus aureus RN4220. AID 1259311. actives 0.33% (n = 330,000). S. aureus RN4220 growth, OD600, 16 h. inhibition, % (concentration not given with the values);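 active = z-score of -3 or lower and OD600 up to 0.18 on both plates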;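 also: plate controls were untreated cells for no effect and reference antibiotic for full effect; stock transfer was 100 nL into about 80 µL; one replicate is shown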
# Autofluor counter: counter-screen for toxin protease inhibitors: compound fluorescence. compound autofluorescence counterscreen, microsphere flow cytometry; active compounds read high. fluorescence intensity (no concentration beside the values). actives 3.1% (n = 360,000). AID 624483;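 active = at least 3 SD above the mean of all compounds, about 16000 in these data; inconclusive = too few beads counted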;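 also: 100 nL of 1 mM stock went into each well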
# Sa ugtP lethal: kills S. aureus RN4220 lacking UgtP | growth inhibition, % (concentration not given with the values) | AID 1259309 | actives 0.54% (n = 330,000) | S. aureus RN4220 ugtP deletion, OD600 growth, 16 h; some inactives read as strong as hits;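 active = z-score under -3 and OD600 up to 0.15 on both plates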;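 also: plate controls were untreated wells for no effect and antibiotic for full effect; wells of about 80 µL received 100 nL stock; the first replicate is given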
# Mtb hypoxia rep: reduces hypoxia-regulated biosensor signal in M. tuberculosis; AID 1159583; actives 0.1% (n = 300,000); M. tuberculosis hypoxia-regulated fluorescent reporter, fluorescence; fluorescence inhibition, % (concentration not given with the values);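 active = 35 to 45% if threefold the growth effect, above 45% if 1.5-fold the growth effect; inactive = the rest, general growth blockers included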;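 also: wells of about 50 µL received 100 nL stock; 0% = vehicle wells and 100% = reference inhibitor wells; whole bacteria with a GFP reporter of the hypoxia response; strong numbers were not always called active; many hits fall short of the cut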
# PrP 5UTR inh: inhibition of PrP 5' UTR reporter expression; actives 0.35% (n = 340,000); cell-based PrP 5' UTR mRNA reporter, plate reader; AID 488862; inhibition, % (test concentration not listed);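 active = every replicate at 50% or more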;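 also: 0 = median of the neutral control wells; tested in H4 reporter cells; numbers are from one replicate; inactives centre near -14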
# BJeLR viability: kills HRASV12-expressing BJeLR cells. actives 0.17% (n = 300,000). BJeLR (HRASV12) viability, CellTiter-Glo ATP luminescence, 48 h; reference of the scale not given here. inhibition, % (no concentration beside the values);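 active = replicate mean above 50%; inconclusive = above 50% but judged a plate artefact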;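 also: 50 nL library stock added to about 25 µL; numbers are from one replicate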
# Mtb hypoxia rep growth: further read-out of Mtb hypoxia rep, marked with its call; growth inhibition, %; measured here: M. tuberculosis growth (absorbance);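 0% = vehicle and 100% = reference antibiotic; read after six days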
# * marks the source's active call; other numbers are inactive results; ? = inconclusive; / = not tested or not shown.
SMILES,RN4220 kill,Autofluor counter,Sa ugtP lethal,Mtb hypoxia rep,Mtb hypoxia rep growth,PrP 5UTR inh,BJeLR viability
Cc1cc(C(=O)OCC(=O)N(C)c2c(N)n(Cc3ccccc3)c(=O)[nH]c2=O)c(C)n1-c1ccccc1,-2.4,?,0,-9,0,-8,/
Cc1ccc(C2CC(=O)N3CN(c4ccc(Br)cc4)CSC3=C2C#N)o1 (configuration not stated),-0.1,?,-3,3,2,-28,6
CC1SCC(NC(=O)c2cccc(Cl)c2)CS1 (configuration not stated),0.5,3435,5,9,5,-18,-2
Cc1csc(NC(=O)CSc2nc(=O)[nH]c3c2CCCC3)n1,3.2,5917,6,15,1,-15,5
Cc1ncc(S(=O)(=O)c2ccccc2)c(-c2ccc(Cl)cc2Cl)n1,14,3067,21,12,0,-13,-3
O=C(CN1CCC(n2nnc3cc(C(F)(F)F)ccc32)CC1)Nc1ccc2c(c1)OCCO2,1.5,8223,0,2,6,-3,-9
Cc1ccccc1NC(=O)C1CC(Cl)=CCC1C(=O)O (configuration not stated),2.0,21780*,0,5,10,-1,-1
O=C(Cc1cccs1)N/N=C/C(Br)=C/c1ccccc1,/,7863,/,/,/,-135,-5
COc1ccc(NC(=O)CSc2ncccc2C(=O)OC(C)C)cc1OC,4.6,8075,16,5,-2,-16,4
COC(=O)C1=C(c2ccc(F)cc2OCc2ccccc2)CC2CCC1N2C(=O)NCc1cccc(C(F)(F)F)c1 (configuration not stated),-15,/,7,-6,-9,/,/
CN([C@@H](Cc1ccc(OS(=O)(=O)c2cccc3cnccc23)cc1)C(=O)N1CCN(c2ccccc2)CC1)S(=O)(=O)c1cccc2cnccc12,/,6766,/,/,/,-13,-16
COc1ccccc1N1CCN(C(=O)c2ccc(Cl)c(S(=O)(=O)NCc3ccco3)c2)CC1,4.3,3517,3,12,2,-8,17
COc1ccc(C=NNC(=O)c2ccoc2C)cc1COc1ccc(Cl)cc1,5.6,/,-10,10,17,/,/
CCCCCCCCNC(CO)(CO)CO,1.3,5419,2,11,13,/,-7
Cn1c(SCC(=O)Nc2ccc(Cl)cn2)nnc1C1CC1,3.7,5591,-5,4,1,-19,6
CCn1c(=O)c(NC(=O)c2ccccc2)c2n(c1=S)CCCCC2,-1.5,2196,3,/,/,-3,2
CN(C)CCNC(=O)c1ccc(Sc2ccc(Br)cc2)c([N+](=O)[O-])c1,-5.3,4505,0,5,16,-17,29
COc1ccc(-n2nnnc2CNC(=O)C2CC(=O)N(c3ccc(Cl)cc3)C2)cc1 (configuration not stated),4.5,?,11,-10,-3,2,-3
O=C(CSc1ncnc2sccc12)N1CCCCC1,6.2,3355,-5,/,/,-68,/
CCC(C)(C)C1CCC2(CC1)NC(=O)N(CC(=O)NC(C)CCc1ccccc1)C2=O (configuration not stated),-1.5,4509,6,-7,-4,-19,/
CCOc1ccc(S(=O)(=O)N2CCC(C(=O)NCc3cccnc3)CC2)cc1,-2.1,4930,-2,3,9,-26,-11
CCOC(=O)NC1(C(F)(F)F)NC(=O)N(c2cccc(C(F)(F)F)c2)C1=O (configuration not stated),3.1,2419,7,12,1,-8,-3
N#CCCN(C1CCCCC1)S(=O)(=O)c1cccc2nsnc12,1.9,2198,7,10,2,-19,-8
Oc1cccc(-c2nc3ccccc3s2)c1,-0.4,4689,27,/,/,-63,3
CC(CC(=O)NCCN1CCOCC1)=NNC(=O)c1ccncc1,0.5,/,3,/,/,/,/
CC#CCN1c2ccccc2[C@]23C[C@@H](C(=O)OC)N(C(=O)C4CCC4)C2=NC(C(=O)OC)=C(C(=O)OC)[C@H]13,/,3553,/,/,/,-32,-8
COc1ccc(N2CCN(CCCNC(=O)Cn3c(=O)c4cccn4c4ccccc43)CC2)cc1,-1.6,5272,5,-13,-10,-16,-1
COCc1nnc(NC(=O)c2cccs2)s1,0.4,9220,-6,-7,7,1,-1
O=C(Oc1ccc(-c2ccccc2)cc1)c1ccco1,5.2,3698,-1,6,6,-8,/
O=C(O)CCSc1nc2ccccc2s1,2.1,22416*,-4,-8,-5,13,16
CC(NC(=O)c1nn(C)c(=O)c2ccccc12)c1ccc(F)cc1 (configuration not stated),-3.7,6772,1,-3,-16,-4,-2
COc1cccc(C2=N/C(=C\N(C)C)C(=O)O2)c1,0.8,4783,-5,/,/,-39,3
COc1ccccc1OCCCn1cc(C(=O)C2CC2)c2ccccc21,-4.5,4259,-2,9,-3,2,-15
COc1ccc2cnn(-c3ccc(OC(F)(F)Cl)cc3)c(=O)c2c1OC,4.5,3355,3,14,8,-44,6
NS(=O)(=O)c1ccc(Nc2c([N+](=O)[O-])cncc2[N+](=O)[O-])cc1,96*,3536,90*,4,1,-4,-6
CC1(C)CC(=O)C2=C(C1)Nc1ncnn1C2c1cccs1 (configuration not stated),6.5,3340,13,2,-2,-35,24
CC(=O)N1CCc2ccc(N)cc21,4.9,2947,8,8,5,-19,/
O=C(CCN1C(=O)/C(=C/c2ccc3c(c2)OCO3)SC1=S)NNC(=O)c1cccnc1,/,3236,/,/,/,-2,-2
C/C(=C\C(=O)c1ccc(Br)cc1)Nc1cccc(Cl)c1,4.6,3075,3,/,/,-37,0
CC(=NNc1nc(C(=O)O)cs1)c1ccccc1,8.9,/,5,7,-1,/,/
CC(C(=O)N1CCN(c2ccccc2)CC1)c1ccc([N+](=O)[O-])cc1 (configuration not stated),-3.7,3071,-5,-2,-1,-1,-2
Cc1cccc(NS(=O)(=O)c2ccc3[nH]c(=O)oc3c2)c1C,3.5,3783,-3,2,10,-8,/
N#C/C(=C\c1ccc(/C=C(/C#N)c2nn(CCO)c(N)c2C#N)cc1)c1nn(CCO)c(N)c1C#N,2.8,2481,-1,9,0,-26,-4
COc1ccc(C=NNC(=O)CCC(=O)Nc2ccccc2)cc1OC,-2.3,/,10,5,4,/,/
COc1cc(C(=O)OCC(=O)N2CC(C)OC(C)C2)cc(OC)c1OC (configuration not stated),1.4,4010,2,12,-3,-27,-10
O=C(NCCC1=CCCCC1)c1cc(COc2ccc(F)cc2Cl)on1,-2.0,4371,-10,-4,5,-4,-9
CC(=O)N1CCN(c2ccc(NC(=O)c3ccc(F)cc3)cc2)CC1,3.1,2860,4,-14,-16,-14,1
S=C(NCc1ccco1)N/N=C/c1ccc(Cl)cc1,/,2486,/,/,/,-24,-7
Cc1cc(C)cc(N(C(=O)c2ccc3c(c2)OCO3)C2C=CS(=O)(=O)C2)c1 (configuration not stated),2.3,9482,6,15,0,-7,-2
CCc1nc(N2CCCCC2C(=O)O)c2oc3ccccc3c2n1 (configuration not stated),2.6,4994,-4,13,5,-12,-9
# New compounds follow:
SMILES,RN4220 kill,Autofluor counter,Sa ugtP lethal,Mtb hypoxia rep,Mtb hypoxia rep growth,PrP 5UTR inh,BJeLR viability
COc1cc(/C=C/C(=O)OCC(=O)NC(=O)NC(C)C)ccc1O,2.9,3853,2,0,-4,-6,-4
COC(=O)c1ccc(NC(=O)CO/N=C2\CCCc3nonc32)cc1,/,3954,/,/,/,-23,6
CC(C)[C@H](NC(=O)c1ccccc1Cl)C(=O)Nc1nc(-c2ccccn2)cs1,-4.7,3117,-58,-4,12,-6,5
CCOc1ccc(-n2cc(-c3ccccc3)c3c(N4CCOCC4)ncnc32)cc1,1.7,4788,10,-1,9,2,0
C/C=C/Cn1c(SC)nc2c1c(=O)[nH]c(=O)n2C,0.3,4529,-4,/,/,-2,-1
Cc1ccc(CNC(=O)C2CCC(=O)N(Cc3cccc(C(F)(F)F)c3)C2)o1 (configuration not stated),1.0,5698,11,6,1,-19,7
COc1ccc(C(=O)c2c[nH]c(C(=O)NCc3cccs3)c2)cc1,/,2571,/,/,/,-22,1
CCOC(=O)c1[nH]c2ccccc2c1NC(=O)c1ccc2c(c1)OCO2,12,4487,9,2,1,9,-4
Cc1ccc(S(=O)(=O)N[C@@H](Cc2ccccc2)C(=O)N2CCC(C(=O)N[C@@H](CC(C)C)C(=O)O)CC2)cc1,3.7,4086,-1,12,1,-19,7
CCN(CC)c1nc(-c2ccccc2)cc(C(F)(F)F)c1C#N,-0.8,2561,34,/,/,1,-14

# Exported with values under each structure: part of the list above
# Values in the order – RN4220 kill	Autofluor counter	Sa ugtP lethal	Mtb hypoxia rep	Mtb hypoxia rep growth	PrP 5UTR inh	BJeLR viability
> Cc1cc(C(=O)OCC(=O)N(C)c2c(N)n(Cc3ccccc3)c(=O)[nH]c2=O)c(C)n1-c1ccccc1
    -2.4	?	0	-9	0	-8	/
> Cc1ccc(C2CC(=O)N3CN(c4ccc(Br)cc4)CSC3=C2C#N)o1 (configuration not stated)
    -0.1	?	-3	3	2	-28	6
> CC1SCC(NC(=O)c2cccc(Cl)c2)CS1 (configuration not stated)
    0.5	3435	5	9	5	-18	-2
> Cc1csc(NC(=O)CSc2nc(=O)[nH]c3c2CCCC3)n1
    3.2	5917	6	15	1	-15	5
> Cc1ncc(S(=O)(=O)c2ccccc2)c(-c2ccc(Cl)cc2Cl)n1
    14	3067	21	12	0	-13	-3
> O=C(CN1CCC(n2nnc3cc(C(F)(F)F)ccc32)CC1)Nc1ccc2c(c1)OCCO2
    1.5	8223	0	2	6	-3	-9
> Cc1ccccc1NC(=O)C1CC(Cl)=CCC1C(=O)O (configuration not stated)
    2.0	21780*	0	5	10	-1	-1
> O=C(Cc1cccs1)N/N=C/C(Br)=C/c1ccccc1
    /	7863	/	/	/	-135	-5
> COc1ccc(NC(=O)CSc2ncccc2C(=O)OC(C)C)cc1OC
    4.6	8075	16	5	-2	-16	4
> COC(=O)C1=C(c2ccc(F)cc2OCc2ccccc2)CC2CCC1N2C(=O)NCc1cccc(C(F)(F)F)c1 (configuration not stated)
    -15	/	7	-6	-9	/	/
> CN([C@@H](Cc1ccc(OS(=O)(=O)c2cccc3cnccc23)cc1)C(=O)N1CCN(c2ccccc2)CC1)S(=O)(=O)c1cccc2cnccc12
    /	6766	/	/	/	-13	-16
> COc1ccccc1N1CCN(C(=O)c2ccc(Cl)c(S(=O)(=O)NCc3ccco3)c2)CC1
    4.3	3517	3	12	2	-8	17

# Additional structures.
SMILES,RN4220 kill,Autofluor counter,Sa ugtP lethal,Mtb hypoxia rep,Mtb hypoxia rep growth,PrP 5UTR inh,BJeLR viability
COc1ccc(N/C=C(/C(C)=O)c2ccccc2)cc1,-0.1,2443,2,/,/,-22,-1
CC(=O)N1CCN(c2ncnc3ccccc23)CC1,3.7,3204,10,9,-1,7,-5
Cc1ccc(-n2nnnc2SCC(=O)Nc2cccnc2Cl)cc1,6.6,2440,8,15,8,-6,-8
O=C(/C=C/c1cccc([N+](=O)[O-])c1)NC(=S)Nc1ccc(CN2CCOCC2)cc1,0.8,2135,6,-1,4,-18,5
COc1ccccc1CNC(=O)C(=O)NCCC1CCCCN1S(=O)(=O)c1ccccc1 (configuration not stated),2.6,5990,7,7,-2,-4,6
Cc1ccc(CNC(=O)C(OC(=O)c2ccco2)C(C)C)cc1 (configuration not stated),0.2,11765,5,3,6,-17,-17
Cc1ccc(S(=O)(=O)NC(=O)COc2cc(C)ccc2C(C)C)cc1,7.2,4958,-9,4,0,-26,-1
Cc1c(C(=O)NCCN2CCOCC2)oc2ccc(S(=O)(=O)N3CCCCCC3)cc12,2.5,9741,3,7,8,-6,-15
COc1ccc(C(=O)Nc2cnn(Cc3c(F)cccc3Cl)c2)cc1OC,3.7,6395,5,-6,5,-12,-6
CCCCNC(=O)CN(c1cccc(F)c1)S(C)(=O)=O,5.6,4302,5,/,/,-12,-1
O=C(c1ccc(CS(=O)c2ccccc2Cl)o1)N1CCN(c2ccccn2)CC1 (configuration not stated),1.7,5432,6,-3,2,-20,9
O=C(NCc1ccc2c(c1)OCO2)C1(S(=O)(=O)c2ccccc2)CC1,-3.1,4880,1,/,/,1,6
CCc1ccccc1NC(=O)C1c2ccccc2Oc2ccccc21,1.4,2031,13,7,3,-11,-9
Fc1ccccc1-c1cc2ncccc2cn1,5.4,4244,-7,4,12,-28,/
O=C(O)CN1CCN(C(c2ccccc2)c2ccccc2)CC1,2.9,3973,3,-4,3,-12,-19
O=C(COc1ccc(Cl)cc1)NNC(=O)C(=O)NC1CCCCC1,2.9,/,8,7,-27,-21,0
COc1ccccc1NC(=O)CSc1nnc(-c2ccccc2)o1,7.2,5104,6,/,/,-60,2

# Compounds were not picked by outcome. About 4% of those tested had a hit in this group.
